Source: PubChem
TRPML1 ag: qHTS for Agonists of the Human Mucolipin Transient Receptor Potential 1 (TRPML1); hit rate 0.12% among 410,000; Mucolipin-1 (Homo sapiens), Q9GZU1; TRPML1-expressing cells, Ca2+ dye fluorescence, FDSS; host cell line not named in the record; reference of the full effect not given here; activation, % (no concentration beside the values); in the data active = activation above about 50%; inconclusive = about 30% to 50%; inactive = below about 30%; also: 0% is about no effect; the text of the record puts the active cut at 80%
Target sequence (Q9GZU1 whole entry, looked up): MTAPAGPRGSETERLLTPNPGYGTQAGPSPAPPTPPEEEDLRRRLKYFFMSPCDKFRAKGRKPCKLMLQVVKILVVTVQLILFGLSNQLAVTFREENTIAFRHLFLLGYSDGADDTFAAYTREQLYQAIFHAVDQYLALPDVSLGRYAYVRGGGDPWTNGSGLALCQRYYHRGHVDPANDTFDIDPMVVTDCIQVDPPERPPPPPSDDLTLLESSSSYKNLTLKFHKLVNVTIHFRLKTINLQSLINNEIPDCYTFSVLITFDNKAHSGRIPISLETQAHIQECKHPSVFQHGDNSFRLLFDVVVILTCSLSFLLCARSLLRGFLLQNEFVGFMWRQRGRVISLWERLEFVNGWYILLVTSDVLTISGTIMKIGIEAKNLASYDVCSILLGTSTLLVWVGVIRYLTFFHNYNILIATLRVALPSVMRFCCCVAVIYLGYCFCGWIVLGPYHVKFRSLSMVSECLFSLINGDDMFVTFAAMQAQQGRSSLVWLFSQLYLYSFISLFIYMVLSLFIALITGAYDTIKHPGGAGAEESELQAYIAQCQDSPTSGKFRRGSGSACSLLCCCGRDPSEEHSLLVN
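Tet-induced TRPML1-DL cells, 1,500 per well, cultured overnight, were loaded with a no-wash Ca2+ dye for 45–90 min. Calcium fluorescence was recorded on the FDSS for 110 s after compound addition, before the EC80 agonist (4 uM 54-4) was added.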
Menin-MLL FL inh: qHTS Assay for Inhibitors Targeting the Menin-MLL Interaction in MLL Related Leukemias: Competition With Fluorescein Labeled MLL-derived Peptide | Fluorescence polarization, fluorescein-MLL peptide displacement from menin | FP activity change, % at 61.4 µM | AID 1766, 2009 | 290,000 tested, under 10 active; inconclusive = falling polarisation curve, or a change in total fluorescence; inactive = total fluorescence flat and polarisation flat or rising; no compound was filed as active; the % refers to the polarisation; negative = inhibition;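 also: % of control where 0% means no effect; inhibitors lower the polarisation; unlabelled MLL peptide was the positive control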
ClpP mod: qHTS Assay for Activators of ClpP; ATP-dependent Clp protease proteolytic subunit (Bacillus subtilis (strain 168)), P80244; purified B. subtilis ClpP, FRET peptide cleavage, 20 min; Potency, µM (titrated, usually from 57.5 µM), for inactives: at the highest dose activity change, negative = active; hit rate 1.9% among 340,000; AID 651965, 2013; active = well fitted falling curve with a large enough effect; inconclusive = small, poorly fitted or top-dose-only effect; inactive = no such curve, though single readings can be large or run the other way; also: potency is read from the fitted curve at half-maximal effect; the source files actives as falling curves though it sought activators and does not explain the sign; nearly all actives have a fitted effect of over 65% in size; many hits overshoot -100%
Target sequence (P80244 whole entry, looked up): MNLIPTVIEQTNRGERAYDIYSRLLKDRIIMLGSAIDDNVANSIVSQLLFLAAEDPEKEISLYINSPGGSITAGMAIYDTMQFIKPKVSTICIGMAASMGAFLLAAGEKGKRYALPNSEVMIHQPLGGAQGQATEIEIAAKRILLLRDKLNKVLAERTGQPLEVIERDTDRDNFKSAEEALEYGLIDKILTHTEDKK
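ClpP 10 microg/mL final, pH 8 Tris/KCl buffer with BSA, glycerol, Tween-20; compound pinned in; FRET-FV substrate; RT 20 min; Ex320/Em430; ΔFRET vs ADEP 5.8 microM, DMSO, no enzyme.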
TRPML1 inh: qHTS for Inhibitors of the Human Mucolipin Transient Receptor Potential 1 (TRPML1); Mucolipin-1 (Homo sapiens), Q9GZU1; TRPML1-inducible cells, Ca2+ dye fluorescence, FDSS; stronger effect = lower value; inhibition of EC80 agonist-evoked calcium signal; activity change, negative = inhibition, % (concentration not given with the values); hit rate 0.02% among 390,000; AID 624415, 2012; in the data active means activity change below about -50%; inconclusive means about -30% to -50%; inactive means above about -30%;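 also: stimulus is agonist 54-4 at its EC80 concentration; % is scaled to controls: 0 for no effect and ±100 for the full control effect; compound concentration not given in the record; the text of the record puts the active cut at -80%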
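Tet-induced TRPML1-DL cells loaded with Ca8 no-wash calcium dye were read kinetically on FDSS. Compound addition was followed by EC80 agonist 54-4 (4 uM final); inhibition was read over 110 s.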
gsp agonist: qHTS for Agonist of gsp, the Etiologic Mutation Responsible for Fibrous Dysplasia/McCune-Albright Syndrome: qHTS; gsp mutant cells, cAMP HTRF, 30 min; control for the full effect not named in the record; hit rate 0.13% among 340,000; AID 624287, 2012; Potency, µM (top dose mostly 76.9 µM), inactives show at the highest dose activation (cAMP increase), hits mostly activators; active = well fitted activation curve with a large enough effect; inconclusive = small, poorly fitted or top-dose-only effect, or another doubt; inactive = no such curve, though single readings can be large or run the other way; cell line not stated here;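 also: phosphodiesterase inhibitor Ro 20-1724 added with compounds to block cAMP breakdown; potency is read from the fitted curve at half-maximal effect; nearly all actives have a fitted effect of over 60% in size; about a fifth of the inactives were tested at one dose only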
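Cells stably selected in G418 were plated at 2000/well, grown 16-24 hr, then given compounds in DMSO with the PDE inhibitor […] (300 uM solution added) for 30 min at 37C; cAMP was read by HTRF.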
gsp antagonist: qHTS for Antagonists of gsp, the Etiologic Mutation Responsible for Fibrous Dysplasia/McCune-Albright Syndrome: qHTS; hit rate 0.4% among 340,000; Potency, µM (series often up to 76.9 µM), for the others: at the top dose activity change, negative = inhibition, actives largely listed as inhibitors; gsp-mutant cells, cAMP HTRF, 30 min; control for the full effect not named in the record; active = falling curve of any shape with a large fitted effect; inconclusive = falling curve, mostly with a smaller effect; inactive = flat or rising curve; cell line not stated here;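 also: intracellular cAMP measured with PDE inhibitor Ro 20-1724 present during compound exposure; potency is read from the fitted curve at half-maximal effect; % is scaled to controls: 0 for no effect and ±100 for the full control effect; nearly all actives have a fitted effect of over 65% in size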
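Measurement of cellular cAMP by homogeneous time-resolved fluorescence following a 30 min compound exposure at 37C. The PDE inhibitor […] was present throughout; the assay buffer was DPBS with 0.05% BSA and 0.005% Tween 20.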
* hit, by the source's call; & = joins results of further samples; [ ] = dose if it differs, or a comment.

What do the screens show for `CN(C(=O)COC(=O)c1ccccc1Cc1ccccc1)c1c(N)n(Cc2ccccc2)c(=O)[nH]c1=O`?
TRPML1 ag: -0.1; ClpP mod: -2.9%; TRPML1 inh: 40; gsp agonist: -10%[15.4 µM]; gsp antagonist: -14%

Results for CN(c1ccccc1)S(=O)(=O)c1cc(C(=O)NCCCn2ccnc2)ccc1Cl ?
TRPML1 ag: -0.9; ClpP mod: -7.2%; TRPML1 inh: -3; gsp agonist: 1%; gsp antagonist: -11%

What do the screens show for `COCCN1CCn2c(nc3cc([N+](=O)[O-])ccc32)C1`?
Menin-MLL FL inh: 3.0; ClpP mod: -0.4%; gsp agonist: 20%; gsp antagonist: -7%

Results for C=C1[C@@H](O)[C@@H]2O[C@]3(CC[C@H](/C=C/[C@@H](C)[C@@H]4CC(C)=CC5(O[C@H](C[C@@](C)(O)C(=O)OC)CC[C@H]5O)O4)O3)CC[C@H]2O[C@@H]1[C@@H](O)C[C@H](C)[C@H]1OC2(CCCCO2)CC[C@H]1C (some centres undefined) ?
TRPML1 ag: 1.4; ClpP mod: 1.1%; TRPML1 inh: 3; gsp antagonist: 1%

Results for COCCN(C(=O)Cc1cccs1)C(C(=O)NCc1ccc(OC)cc1)c1ccc(C)cc1 (centres undefined) ?
TRPML1 ag: 0.9; Menin-MLL FL inh: -0.2; ClpP mod: -20%; TRPML1 inh: 31; gsp agonist: -26%; gsp antagonist: -6%

Results for COc1ccc(-n2nc3ccc(NS(C)(=O)=O)cc3n2)cc1Cl ?
TRPML1 ag: -0.6; Menin-MLL FL inh: -0.3; ClpP mod: 28µM*; TRPML1 inh: -1; gsp agonist: inconclusive; gsp antagonist: 7%

What do the screens show for `O=C(O)c1ccc(/C=N/NC(=O)c2cc3ccccc3cc2O)cc1`?
TRPML1 ag: 0.4; ClpP mod: -0.4%; TRPML1 inh: -7; gsp agonist: -55%; gsp antagonist: -2%

Results for Cn1c(C(=O)N2CCN(c3ccccc3)CC2)cc2cc(Cl)ccc21 ?
TRPML1 ag: 0.5; Menin-MLL FL inh: -14; ClpP mod: -1.6%; TRPML1 inh: -5; gsp agonist: 27%; gsp antagonist: 7%

How did CC(C)CNC(=O)C1CCN(S(=O)(=O)c2ccc3c(c2)OCCO3)CC1 do in these assays?
TRPML1 ag: 0.7; TRPML1 inh: 5; gsp agonist: 13%[15.4 µM]; gsp antagonist: 2%

Results for COc1ccccc1C(=O)NCCC(=O)N1CCCCCCC1 ?
TRPML1 ag: -0.9; ClpP mod: -3.0%; TRPML1 inh: -5; gsp agonist: 16%; gsp antagonist: 2%

How did C[C@H]1CN([C@@H](C)CO)C(=O)CCCn2nncc2CO[C@H]1CN(C)S(=O)(=O)c1ccc2c(c1)OCCCO2 do in these assays?
TRPML1 ag: -0.3; ClpP mod: -3.6%; TRPML1 inh: -5; gsp agonist: -35%[inhibitor]

What do the screens show for `Cc1ccc(-c2noc(CNC(=O)c3ccc4c(c3)OCO4)n2)cc1`?
TRPML1 ag: 0.8; Menin-MLL FL inh: 0.9; ClpP mod: 0.9%; TRPML1 inh: 0; gsp agonist: 1%[15.4 µM]; gsp antagonist: -7%

What do the screens show for `O=C(COc1ccccc1[N+](=O)[O-])N1CCN(c2ccccn2)CC1`?
TRPML1 ag: -0.3; TRPML1 inh: -2; gsp agonist: 12%[15.4 µM]; gsp antagonist: 8%

What do the screens show for `Cc1cc(C)n2nc(-c3sccc3-n3cccc3)cc2n1`?
TRPML1 ag: 2.5; Menin-MLL FL inh: 3.2; ClpP mod: -23%; TRPML1 inh: 13; gsp agonist: 1%; gsp antagonist: -5%

What do the screens show for `COc1ccc(-c2cc(=O)c3cc(OC)ccc3o2)cc1`?
TRPML1 ag: -0.6; Menin-MLL FL inh: 5.4&1.9; ClpP mod: 3.8%; TRPML1 inh: 8; gsp agonist: 24%; gsp antagonist: 10%

Results for CC1(C)NC(=O)N(CC(=O)OCC(=O)NC(=O)c2ccccc2)C1=O ?
TRPML1 ag: -0.2; ClpP mod: 0.7%; TRPML1 inh: -20; gsp agonist: -2%; gsp antagonist: -4%

Results for CCOC(=O)CSc1nc2ccccc2n1CC(=O)N(C(C)C)C(C)C ?
TRPML1 ag: 0.2; Menin-MLL FL inh: 2.5; ClpP mod: -2.0%; TRPML1 inh: 4; gsp agonist: -27%; gsp antagonist: -18%

What do the screens show for `O=C(CSc1oc(-c2ccco2)nc1S(=O)(=O)c1ccc(Br)cc1)c1ccc(Cl)cc1`?
TRPML1 ag: 1.4; ClpP mod: -0.7%; TRPML1 inh: 32

Results for O=C(NCc1ccc(F)cc1)C1CCCN(C(=O)NCc2ccccc2)C1 (centres undefined) ?
TRPML1 ag: -1.1; Menin-MLL FL inh: 7.8; ClpP mod: -2.1%; TRPML1 inh: -14; gsp agonist: 12%[15.4 µM]; gsp antagonist: -6%

What do the screens show for `Cc1occc1C(=O)N(C)CC1CCCN(CCc2ccc(Cl)cc2)C1` (centres undefined)?
TRPML1 ag: -0.6; ClpP mod: -2.4%; TRPML1 inh: 0; gsp agonist: -39%[inhibitor]

How did O=C(CN1C(=O)S/C(=C/c2ccncc2)C1=O)Nc1ccccc1 do in these assays?
TRPML1 ag: -0.4; ClpP mod: -4.7%; TRPML1 inh: -9; gsp agonist: -18%; gsp antagonist: 16%

How did Cc1ccc(Cl)cc1NC(=O)Nc1cn(CC(C)C)c(=O)c2ccccc12 do in these assays?
TRPML1 ag: 57*; ClpP mod: 0.8%; TRPML1 inh: 2

Results for CNC(=O)Cn1ncc2c(C)n(Cc3ccc(C)cc3)c(C)c2c1=O ?
TRPML1 ag: -0.4; Menin-MLL FL inh: -0.9; ClpP mod: -13%; TRPML1 inh: -6; gsp agonist: 8%; gsp antagonist: -14%

Results for CS(=O)(=O)N1CC2CCCN2c2ccc(C(F)(F)F)cc21 (centres undefined) ?
TRPML1 ag: -0.5; Menin-MLL FL inh: -2.9; TRPML1 inh: -1; gsp agonist: 4%[15.4 µM]; gsp antagonist: 5%

How did C[C@@H]1CN([C@@H](C)CO)C(=O)CCCn2nncc2CO[C@H]1CN(C)C(=O)Cc1ccccc1 do in these assays?
TRPML1 ag: -0.1; ClpP mod: 1.0%; TRPML1 inh: 4; gsp agonist: -9%

How did O=C(CSCc1ccccc1)N1CCN(c2ccccc2)CC1 do in these assays?
TRPML1 ag: 1.8; Menin-MLL FL inh: 3.4; ClpP mod: 0.6%; TRPML1 inh: 2; gsp agonist: 3%; gsp antagonist: 9%

How did Cc1ccccc1Cn1c(=O)n(CCCCCC(=O)NCc2ccc3c(c2)OCO3)c(=O)c2sccc21 do in these assays?
TRPML1 ag: 0.0; ClpP mod: 0.5%; TRPML1 inh: 33

What do the screens show for `COc1ccc(CNC(=O)[C@@H]2CC=C[C@@H]3CCN(Cc4ccccc4)C(=O)[C@@H]32)cc1`?
TRPML1 ag: 0.2&-0.8; ClpP mod: -0.7%&0.6%; TRPML1 inh: -3; gsp antagonist: 1%

Results for COc1cc(OC)c(NC(=S)NCc2ccc(F)cc2)cc1Cl ?
TRPML1 ag: 0.9; Menin-MLL FL inh: 5.6; TRPML1 inh: 8; gsp agonist: 24%[15.4 µM]

How did CC(C)c1ccc(OCC(=O)NC(Cc2c[nH]c3ccccc23)C(=O)O)cc1 (centres undefined) do in these assays?
TRPML1 ag: 7.3&1.6; Menin-MLL FL inh: 7.7; ClpP mod: -2.6%; TRPML1 inh: -3&-7; gsp agonist: -9%[15.4 µM]; gsp antagonist: 1%

How did CCC(CC)c1nnc(NC(=O)CN2C(=O)C3C4C=CC(C4)C3C2=O)s1 (centres undefined) do in these assays?
TRPML1 ag: -0.4; Menin-MLL FL inh: -0.6; ClpP mod: -1.7%; TRPML1 inh: -16; gsp agonist: -1%; gsp antagonist: 5%

How did CCOc1ccc(CC(=O)NNC(=S)NC)cc1Br do in these assays?
TRPML1 ag: -0.7; Menin-MLL FL inh: 2.0; ClpP mod: 0.1%; TRPML1 inh: 23; gsp agonist: -2%[15.4 µM]; gsp antagonist: -14%

How did COc1cc(C=O)ccc1OCCSc1ccc(Cl)cc1 do in these assays?
TRPML1 ag: 1.2; Menin-MLL FL inh: -1.1; ClpP mod: -2.0%; TRPML1 inh: -10; gsp agonist: -2%; gsp antagonist: -7%

What do the screens show for `CCc1ccc(CNc2nc3nc(C)c(Cc4ccccc4)c(=O)n3[nH]2)cc1`?
TRPML1 ag: -0.9; ClpP mod: -5.5%; TRPML1 inh: -11

Results for O=C(CCC(=O)c1cccs1)NC(c1ccccc1)c1ccccc1 ?
TRPML1 ag: 1.3; Menin-MLL FL inh: -4.6; ClpP mod: 1.1%; TRPML1 inh: 18; gsp agonist: 1%; gsp antagonist: 0%

What do the screens show for `CCOC(=O)N1CCN(C(=O)CSc2ccc3nnc(-c4ccccn4)n3n2)CC1`?
TRPML1 ag: 0.2; Menin-MLL FL inh: 0.7; ClpP mod: 0.8%; TRPML1 inh: 52; gsp agonist: 12%[15.4 µM]; gsp antagonist: -3%

Results for Cn1c(=O)n(Cc2ccccc2)c(=O)c2c1nc1n2CCCN1Cc1ccccc1 ?
TRPML1 ag: 0.7; Menin-MLL FL inh: 3.1; ClpP mod: -1.4%; TRPML1 inh: inconclusive; gsp agonist: 22%; gsp antagonist: -12%

What do the screens show for `O=C1C2C3CCC(C3NCc3ccccc3)C2C(=O)N1Cc1ccccc1` (centres undefined)?
TRPML1 ag: 1.3; Menin-MLL FL inh: 1.7; ClpP mod: 0.6%; TRPML1 inh: 22; gsp agonist: 14%; gsp antagonist: -12%

Results for O=C(CCSc1nc(-c2ccccc2)c(-c2ccccc2)o1)N1CCCCC1 ?
TRPML1 ag: 4.2; ClpP mod: 4.7%; TRPML1 inh: 17; gsp agonist: -3%

Fetched by compound from the entries so far (two):
How did CCOc1ccc(CC(=O)NNC(=S)NC)cc1Br do in these assays?
TRPML1 ag: -0.7; Menin-MLL FL inh: 2.0; ClpP mod: 0.1%; TRPML1 inh: 23; gsp agonist: -2%[15.4 µM]; gsp antagonist: -14%

Results for COCCN(C(=O)Cc1cccs1)C(C(=O)NCc1ccc(OC)cc1)c1ccc(C)cc1 (centres undefined) ?
TRPML1 ag: 0.9; Menin-MLL FL inh: -0.2; ClpP mod: -20%; TRPML1 inh: 31; gsp agonist: -26%; gsp antagonist: -6%
